Screens: PubChem, ICCB-Longwood Screening Facility, Harvard Medical School
GIV Gai3 FP: blocks GIV peptide binding to rat Galpha-i3 | P08753 | Galpha-i3/FITC-GIV peptide fluorescence polarization, 90 min; hits give low values; scaled: aluminum fluoride 0%, vehicle 100% | percent of control (FP), % (concentration not given with the values) | actives 0.42% (n = 210,000);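 active means replicate mean at 85% of control or lower, very high polarization wells dropped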;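 further: wells of about 15 µL received 100 nL stock; the first replicate is given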
Target sequence (P08753 whole entry, looked up): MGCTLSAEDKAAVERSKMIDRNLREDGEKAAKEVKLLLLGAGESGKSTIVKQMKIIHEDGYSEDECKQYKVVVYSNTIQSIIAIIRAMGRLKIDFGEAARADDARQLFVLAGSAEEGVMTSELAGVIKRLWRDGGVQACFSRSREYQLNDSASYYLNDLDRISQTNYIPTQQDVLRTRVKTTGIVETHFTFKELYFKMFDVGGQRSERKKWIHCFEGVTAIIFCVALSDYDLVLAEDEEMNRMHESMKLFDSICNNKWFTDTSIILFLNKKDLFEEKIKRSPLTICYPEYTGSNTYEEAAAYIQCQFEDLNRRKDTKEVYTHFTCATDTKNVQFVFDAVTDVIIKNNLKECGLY
Sa growth inh: S. aureus growth inhibition; S. aureus RN4220 growth, OD600, 20 h, 42 °C; hits give low values; relative growth, % (no concentration beside the values); actives 0.53% (n = 170,000);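 active means growth at 42 °C up to 50% and 20 or more points under that at 30 °C, or under 10% at both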;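 further: 300 nL library stock went into each well; scaled to the means of positive and negative controls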
HCMV UL50-53 inh: cytomegalovirus nuclear egress complex inhibition | HTRF UL50-UL53 interaction, normalized percent inhibition | inhibition, % (test concentration not listed) | actives 0.15% (n = 190,000) | AID 1918969;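 active means both replicates at 50% or more, plus weaker picks with an unusually low signal ratio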;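 further: stock transfer was 100 nL into about 20 µL; 0% = negative control wells and 100% = wells with untagged competitor protein; inactives centre near -12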
Sa growth inh second temp: also measured in Sa growth inh; calls as there; relative growth, %; measured here: growth at 30 °C;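 optical density after 20 h as mean of two plates; 100% = untreated growth and lower means inhibition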
Numbers without * were called inactive; / = not tested or not shown; & = joins results of further samples. Not a hit list, and some 0.83% of all compounds hit somewhere here.

Molecule,GIV Gai3 FP,Sa growth inh,Sa growth inh second temp,HCMV UL50-53 inh
COc1cc(/C=C2/C(=O)NC(=O)N(c3ccc(F)cc3)C2=O)cc(Br)c1OC,107,/,/,-16
O=c1nc(SCc2ccc(F)cc2)c2c(n1C1CCCCC1)CCC2,104,/,/,-20
O=C(NCCc1ccc(Cl)cc1)c1ccc2nc(CCc3ccccc3)oc2c1,97,102,89,/
Nc1nonc1-c1noc(COc2c(F)c(F)cc(F)c2F)n1,101,97,98,14
Cc1nc2cc(-c3ccccc3)nn2c(C)c1CCC(=O)Nc1ccc2c(c1)OCO2,100,102,80,-7
CN(Cc1nnc(-c2ccccc2)o1)C(=O)Nc1ccc(F)cc1,99,92,88,-21
O=C(CSc1nc2ccccc2nc1Cc1ccccc1)N1CCCc2ccccc21,109,78,89,/
Cc1nnsc1C(=O)Nc1sc2c(c1C(N)=O)CCCC2,93,/,/,-22
Nc1nc(Cl)nc2c1ncn2[C@@H]1O[C@H](CO)[C@@H](O)[C@@H]1F,99,95,92,-2&2
CC(=O)C1=C(c2ccc(Cl)c(Cl)c2)N(C(C)=O)n2c(nnc2C2CCCCC2)S1,97,124,92,/
Cc1ccc(NS(=O)(=O)c2cn(C)c(C)n2)c(Cl)c1,103,/,/,-18
Cc1nn(-c2ccccc2)c2c1C1C(=C(N)S2)C(=O)Oc2ccccc21 (configuration not stated),/,63,36,-19
Cc1ccc(Cn2c(=O)c3ccccc3n3c(SCC(=O)OC(C)(C)C)nnc23)cc1,/,75,94,-29
CCn1ncc(NC(=S)NCCc2ccccc2)c1C(N)=O,105,94,98,0
CCn1c(C(C)N2CCCCC2)nc2ccccc21 (configuration not stated),97&104,82,90,-8&-6
O=C(c1ccc2c(c1)OCO2)N1CCCC1c1cccc(F)c1 (configuration not stated),101,/,/,15
CC(NC(=O)CCCn1c(=O)c2cccn2c2ccccc21)c1ccccc1 (configuration not stated),99,96,76,/
O=C(O)c1noc2c1CCCC2,98,117,96,-2
CC(NC1CC(C)N(C)CC1C)c1ccccc1 (configuration not stated),103,104,86,-2
Clc1nc(CN2CCCCC2)nc2sc3c(c12)CCC3,/,115,102,16
CCOC(=O)CC1=C(C(=O)OCC)C(c2ccc(C)o2)C(C#N)=C(N)O1 (configuration not stated),101,77,86,-10
O=C(c1ccc(N2CCNCC2)c(NS(=O)(=O)c2ccc(C3CCCCC3)cc2)c1)N1CCOCC1,99,/,/,-10
CC1CCN(c2oc(-c3ccc(COc4ccc(Cl)cc4)o3)nc2C#N)CC1,101,92,86,-1
C/C(=N\O)c1sc2ccc(Cl)cc2c1C,108,115,104,-12
COc1ccccc1N1CCN(CCCCNS(=O)(=O)c2ccc(Cl)c(Cl)c2)CC1,105,104,83,-13
COc1ccc2c(CC(=O)OCc3cc(=O)oc4cc(OC)ccc34)coc2c1,/,103,98,-14
O=C(Nc1ccc2c(c1)OCO2)N1CCc2c([nH]c3ccccc23)C1c1ccc(F)cc1 (configuration not stated),107,/,/,-6
Cc1cccc(Oc2coc3cc(OC(=O)c4cccs4)ccc3c2=O)c1,97,101,77,/
COc1ccc(C(=O)Nc2ccc(-c3nc4ccccc4o3)cc2)cc1OC,104,126,99,-3
CC1CCN(C(=O)C2CCCN(C(=O)c3nnc(C(=O)Nc4ccc(F)cc4)s3)C2)CC1 (configuration not stated),103,/,/,-25

Entries above that have four or more nitrogen atoms (10):
Molecule,GIV Gai3 FP,Sa growth inh,Sa growth inh second temp,HCMV UL50-53 inh
Nc1nonc1-c1noc(COc2c(F)c(F)cc(F)c2F)n1,101,97,98,14
Cc1nc2cc(-c3ccccc3)nn2c(C)c1CCC(=O)Nc1ccc2c(c1)OCO2,100,102,80,-7
CN(Cc1nnc(-c2ccccc2)o1)C(=O)Nc1ccc(F)cc1,99,92,88,-21
Cc1nnsc1C(=O)Nc1sc2c(c1C(N)=O)CCCC2,93,/,/,-22
Nc1nc(Cl)nc2c1ncn2[C@@H]1O[C@H](CO)[C@@H](O)[C@@H]1F,99,95,92,-2&2
CC(=O)C1=C(c2ccc(Cl)c(Cl)c2)N(C(C)=O)n2c(nnc2C2CCCCC2)S1,97,124,92,/
Cc1ccc(Cn2c(=O)c3ccccc3n3c(SCC(=O)OC(C)(C)C)nnc23)cc1,/,75,94,-29
CCn1ncc(NC(=S)NCCc2ccccc2)c1C(N)=O,105,94,98,0
O=C(c1ccc(N2CCNCC2)c(NS(=O)(=O)c2ccc(C3CCCCC3)cc2)c1)N1CCOCC1,99,/,/,-10
CC1CCN(C(=O)C2CCCN(C(=O)c3nnc(C(=O)Nc4ccc(F)cc4)s3)C2)CC1 (configuration not stated),103,/,/,-25

Continuation:
Molecule,GIV Gai3 FP,Sa growth inh,Sa growth inh second temp,HCMV UL50-53 inh
CCN(CC)S(=O)(=O)c1ccc2c(c1)n(C)c(=O)c(=O)n2C,106,101,89,-9
CCc1ccccc1NC(=S)N(CCc1ccncc1)C(C)C,101,93,94,/
COc1cccc(OC(=O)N2CCOCC2)c1,106,98,119,12
OCC(CO)(CO)NC(=S)Nc1ccc(F)c(Cl)c1,107,86,80,-26
CC(C(=O)NC1CC1)N(c1cccc(Cl)c1)S(C)(=O)=O (configuration not stated),102,103,96,-32
Cc1nonc1NC(=O)OC(C)C,103,90,81,-20
Cc1cccc(-n2ncc3ccccc3c2=O)c1,104,112,85,-14
O=C(COC(=O)c1cccc(N2C(=O)c3ccccc3C2=O)c1)NCc1ccco1,/,104,93,-24
COc1ccccc1Cc1nc2ccccc2nc1SCC(=O)NCCc1ccccc1,100,82,94,/
CCc1ccc(-n2c(CCC(=O)O)ccc2-c2cccs2)cc1,107,91,67,-42
CCN(CC)CCCNC(=O)c1c(C)oc2ncn(CC(C)C)c(=O)c12,102,94,91,/
CCOc1ccccc1NC(=O)Nc1ccccc1SCc1cc(=O)n2cc(Cl)ccc2n1,107,/,/,-48
N=C(N)c1cc(Cl)cc(Cl)c1,99,100,105,7
CCCC(C1C(=O)CC(C)(C)CC1=O)C1C(=O)CC(C)(C)CC1=O,109,96,92,0
O=C(NO)C12CCCC(CCC1)C2,/,120,87,-22
O=C(NCc1ccccc1)C1C2C=CC3(CN(Cc4cccnc4)C(=O)C13)O2 (configuration not stated),105,90,79,/
FC(F)Oc1ccccc1-n1cccc1,/,73,91,-14
Cc1nn2c(N(C)CCO)c3c(nc2c1-c1ccc(F)cc1)CCCC3,106,110,106,-3
Cc1c2cnn(-c3ccccc3)c(=O)c2c(C)n1C(C)C(=O)NCc1cccc(Br)c1 (configuration not stated),105,104,80,-21
CCc1c(C(=O)Nc2ccncc2)csc1C,108,111,101,1
O=C(Nc1nnc(C2CC2)s1)C1Cc2ccccc2CN1C(=O)c1ccco1 (configuration not stated),/,93,96,-1
CCOC(=O)N1CCC(NC(=O)c2ccc(NC(=O)C3CCCO3)cc2)CC1 (configuration not stated),103,89,78,/
Fc1cc(F)c2nc(N3CCN(c4nc5ccccc5s4)CC3)sc2c1,103,89,82,-37
CC(=O)Nc1cccc(-c2nc3cc(Cl)cc(Cl)c3o2)c1,98,89,86,-16
COc1cccc(-c2nn(C)c3sc(C(=O)N4CCCCCC4)cc23)c1,95,58,47,/
CC(=O)Nc1ccc(S(=O)(=O)NC2=NCN(C)CN2)cc1,105,87,94,/
CC(C)C(=O)N1c2ncnn2C(c2ccccc2)CC1c1ccccc1 (configuration not stated),100,98,82,/
O=c1c(N2CCc3ccccc3C2)csc2ccc(F)cc12,127,108,81,/
CC1CC(=O)N(c2ccccc2OC(F)(F)F)C1=O (configuration not stated),98,103,89,-1
C#CCn1c(CN2CCOCC2)nc2ccccc21,107,/,/,-4

Next section.
Molecule,GIV Gai3 FP,Sa growth inh,Sa growth inh second temp,HCMV UL50-53 inh
CCc1ccc(NC(=O)Cn2c(=O)n(CCCC(=O)NCCc3ccc(OC)c(OC)c3)c(=O)c3ccccc32)cc1,104,108,89,-26
CCC(=O)Nc1ccccc1-c1nnc(SC(CC)C(=O)Nc2cccc(CC)c2)[nH]c1=O (configuration not stated),101,/,/,2
CCc1ccc(-c2nc3c(c(SCc4ccc(F)cc4)n2)Cc2c(CO)cnc(C)c2O3)cc1,105,120,97,/
CCNC(=O)Nc1ccc2nc(C)n(Cc3cccc(Cl)c3)c(=O)c2c1,104,97,102,18
O=C(/C=C1\Sc2ccccc2NC1=O)NC1CCCCC1,104,117,109,-11
Cc1ccc2c(cnn2C(=O)CCCC(=O)N2CCc3ccccc32)c1,104,91,90,-12
O=C(Nc1ccc(-c2ccc3nncn3n2)cc1)C1CCCC1,103,93,67,-123
Cc1cccc(OCC(=O)OCc2cc(=O)n3nc(-c4cccs4)sc3n2)c1,102,102,82,/
CCCc1c(O)nc(SCC(=O)N(CC)CC)[nH]c1=O,104,87,98,-12
CC(Sc1cn(CCNC(=O)c2ccccc2F)c2ccccc12)c1ccccc1 (configuration not stated),102,77,90,-37
CCCn1c(Cn2ccnc2C)nc2cc(NC(=O)c3cccc(C)c3)ccc21,102,/,/,-18
Cc1c(C)c(C)c(C(=O)c2ccccc2C(=O)N2CCOCC2)c(C)c1C,101,102,83,-15
CN1CCN(Nc2oc(-c3ccc(F)cc3)nc2C#N)CC1,/,87,85,-24
O=C(Nc1ccnn1C1CCCC1)c1ccc(Cl)cc1,103,/,/,-9
O=C(Cc1ccc(-c2ccccc2)cc1)NN1CCOCC1,106,105,85,0
Cn1c(=O)oc2cc(S(=O)(=O)N3CCC(C(=O)O)CC3)ccc21,/,109,93,2
CCOc1cc(-c2cccc(OC)c2)nc2ccc(C(=O)N3CCN(c4ccccn4)CC3)cc12,106,/,/,-18
C(=C\c1ccccc1)/CNCc1ccco1,105,117,88,/
Cc1nn(-c2ccccc2)c2c1C(c1ccccc1)N1C=C(S(=O)(=O)N3CCCCC3)C=CC1=N2 (configuration not stated),/,99,89,-20
CC1=C(C(=O)Nc2ccccc2)C2(CCCCC2)C(C#N)=C(S)N1,/,102,89,-16
CCNc1c(NC(=O)c2cccs2)c(=O)oc2ccccc12,102,91,93,/
O=C(NC1CCN(Cc2ccc3ccccc3c2)CC1)c1ccccc1,102,102,102,-2
O=c1oc2ccccc2c2nccnc12,109,99,103,-5
Cc1cc(C)cc(NC(=O)CSCn2nnc3c(=O)[nH]c(Cc4ccc(F)cc4)nc32)c1,104,91,88,-16
CN(Cc1ccccc1)S(=O)(=O)c1ccc(F)c(C(=O)Nc2ccccc2C(F)(F)F)c1,100,109,88,/
O=C(O)CC(C(=O)O)n1c(O)c(/C=C2/C=Nc3ccccc32)sc1=S (configuration not stated),359,125,97,/
COC(=O)c1c(C)oc(C)c1S(=O)(=O)NCc1cccs1,100,104,72,1
CCCCCOc1ccc(C(=O)CCC(=O)O)cc1,/,84,96,-32
CC1CCCCN1Cc1cc(=O)n2[nH]c(-c3ccc(C(C)(C)C)cc3)nc2n1 (configuration not stated),99,/,/,-20
CCn1cc(S(=O)(=O)c2ccc(C)cc2C)c(=O)c2cc(F)c(N3CCCCC3)cc21,105,112,89,/

(further entries)
Molecule,GIV Gai3 FP,Sa growth inh,Sa growth inh second temp,HCMV UL50-53 inh
CCN(C(=O)COc1ncnc2sc(-c3ccccc3)cc12)C1CCS(=O)(=O)C1 (configuration not stated),/,100,92,-55
Cc1nc(-c2cc3cccc(C)c3nc2NCc2ccccc2)no1,110,/,/,10
Cc1cc(C)cc(OCC(=O)NCC2(N(C)C)CCCCC2)c1,107,96,92,0
COc1ccc(NC(=O)C2CCCN(c3cnccn3)C2)c(OC)c1 (configuration not stated),102,97,89,1
CC(CCc1ccccc1)NC(=O)COc1ccc(-c2nnco2)cc1 (configuration not stated),/,94,88,-20
CC(C)(C)OC(=O)N1CCC(CNC(=O)c2ccc(F)cc2F)CC1,97,92,84,-38
CCN(CC)c1ccc(NC(=O)C2CCN(S(=O)(=O)c3c(C)noc3/C=C/c3ccccc3F)CC2)c(C)c1,109,96,97,/
CC(C)(C)NS(=O)(=O)c1ccc2[nH]c3c(c2c1)CCCCC3,106,101,76,7
CCCn1c(CN2CCC(C)CC2)nc2cc(NC(=O)C3CCCCC3)ccc21,105,/,/,-2
CCOc1ccc(NC(=O)C2COc3ccccc3O2)cc1 (configuration not stated),101,/,/,-15
O=C(O)CCCc1nc(-c2ccccc2)no1,96,91,83,-9
Cc1ccc2nc(-c3ccc(NC(=O)COc4ccc(Cl)c(C)c4)cc3)sc2c1,107,103,95,-27
Cc1c(NC(=O)c2ccc(N3CCC(C)CC3)c([N+](=O)[O-])c2)cccc1-c1nc2ccccc2o1,110,104,95,-4
COc1c(I)cc(I)cc1/C=C1/SC(=S)N(CC(=O)O)C1=O,109,/,/,-12
CCC(O)c1nc2ccccc2n1CCOc1cc(C)cc(C)c1 (configuration not stated),103,83,94,-6
